Screening results (PubChem)
Bst PK mod: alters activity of Bacillus stearothermophilus pyruvate kinase | partly purified Bacillus stearothermophilus pyruvate kinase, luminescence ATP production; ribose 5-phosphate activator present at AC10 | Potency, µM | 1.2% of 51,000 active | AID 361; in the data active means potency below about 11 µM; inconclusive means mostly about 12 µM to 25 µM; inactive means weaker than that;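 the screen sought inhibitors and activators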;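 also: potency is read from the fitted curve at half-maximal effect; scaled between full activation by ribose 5 phosphate and full inhibition by luteolin; about four in five hits inhibit and the cells do not say which; series up to 57 µM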
YjeE inh: YjeE (TsaE) inhibition, E. coli | Potency, µM | P0AF67 | 0.05% of 71,000 active | purified YjeE, fluorescence polarisation of a bound ADP probe; active = well fitted falling curve; inconclusive = weaker or top-dose-only fall, or a rising curve; inactive = flat or poorly fitted curve;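 also: top concentration of the series not given in the record; excess ADP was the control for the full effect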
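Purified YjeE (10 uM) with BODIPY Texas Red-labeled ADP probe (2 uM); compounds pin-transferred, 15 min at room temperature. Binding inhibition read as decreased fluorescence polarization; ADP titration as control.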
The depositor's hits bear a star; i = inactive; ? = inconclusive; . = no result given. This is a subset; the hit share may differ from the screen's.

The opening 7 records, to show the layout:
YjeE inh | Bst PK mod | SMILES
i | >57 | O=C1NCCCC2c3c(cc(Br)c(O)c3Br)OC12N1CCOCC1 (centres undefined)
i | . | O=C(NC1CCCCCC1)c1c(O)c2ccccc2[nH]c1=O
i | >11 | CCCn1c2c(c(O)c(C(=O)Nc3ccc(OCC)cc3)c1=O)CCCC2
i | >57 | CC(C)(C)n1ncc2c(=O)n(CC(=O)Nc3ccccc3)cnc21
i | >57 | COc1ccc(C(=O)N(CN2CCCC2=O)c2ccc(C)cc2)cc1
i | . | CN1CSC2=C(C#N)C(c3cccc(OCc4ccccc4)c3)CC(=O)N2C1 (centres undefined)
i | >57 | Cc1ccc(Cn2ccc(NC(=O)c3cc(-c4ccc(Br)cc4)on3)n2)cc1

The list itself, from the start:
YjeE inh | Bst PK mod | SMILES
i | >57 | O=C1NCCCC2c3c(cc(Br)c(O)c3Br)OC12N1CCOCC1 (centres undefined)
i | . | O=C(NC1CCCCCC1)c1c(O)c2ccccc2[nH]c1=O
i | >11 | CCCn1c2c(c(O)c(C(=O)Nc3ccc(OCC)cc3)c1=O)CCCC2
i | >57 | CC(C)(C)n1ncc2c(=O)n(CC(=O)Nc3ccccc3)cnc21
i | >57 | COc1ccc(C(=O)N(CN2CCCC2=O)c2ccc(C)cc2)cc1
i | . | CN1CSC2=C(C#N)C(c3cccc(OCc4ccccc4)c3)CC(=O)N2C1 (centres undefined)
i | >57 | Cc1ccc(Cn2ccc(NC(=O)c3cc(-c4ccc(Br)cc4)on3)n2)cc1
i | >57 | COc1ccc(C)cc1S(=O)(=O)N(C)CC(=O)N1CCCCCC1
i | >57 | CC(C)CNS(=O)(=O)c1ccc(CCC(=O)Nc2ccc3c(c2)OCO3)cc1
i | . | CC1=C(/C=C\C(=O)O)C(C)(C)CCC1
. | >26 | CCCOc1ccc(/C(O)=C2/C(=O)C(=O)N(CCN(C)C)C2c2ccc(OC)c(OC)c2)cc1 (centres undefined)
i | >57 | CCCCNC(=O)NS(=O)(=O)c1ccc(C(=O)OC(C)C)o1
i | >57 | CCN1CCN(CC(=O)Nc2cc(F)ccc2C)CC1
i | . | Cn1c(=O)c(-c2cccs2)nc2cnc(Oc3ccccc3)nc21
i | . | CCOc1ccc(NC(=O)C2CCC(C)(C(=O)O)C2(C)C)cc1 (centres undefined)
. | >26 | CCCC1CC(=O)OC1(C)C(=O)CSc1n[nH]c(-c2ccccc2)n1 (centres undefined)
i | >57 | O=C(O)Cc1cc2c(s1)CCCCC2
i | . | Cn1cccc1Cc1nnc(SCC(=O)Nc2cccc(F)c2)n1-c1ccc(F)cc1
i | >57 | Cc1csc(SCc2c(C(=O)O)oc3ccccc23)n1
i | . | Cc1cc(Nc2ccccc2Br)n2nc(C)nc2n1
i | >57 | CCCCC(=O)NCc1ccc2c(c1)cc(C)n2C
i | >57 | Cc1ccc(S(=O)(=O)Nn2c(C)ccc2C)cc1
i | >57 | COc1cc(-c2noc(C3CCCN(S(=O)(=O)c4cccc(Cl)c4)C3)n2)cc(OC)c1OC (centres undefined)
i | >57 | OCC1(C2=NOC(O)(C(F)(F)F)C2)CCCCC1 (centres undefined)
i | . | CC(=O)N1CCN=C1SCc1ccc(Br)cc1
i | 2.1* | Cc1nnc(NC(=O)c2sc3ccccc3c2Cl)s1
i | ? | Cc1cccc(-c2nnc3sc(-c4ccccc4C)nn23)c1
i | >57 | O=c1ccc2cc(S(=O)(=O)N3CCN(c4ccccc4)CC3)ccc2o1
i | >57 | COC(=O)Nc1c(C)n(C)n(-c2ccccc2)c1=O
i | >57 | COc1ccc(-c2nc(C#N)c(NCc3ccc(C)cc3)o2)cc1OC
i | >57 | COCCCNC(=O)C1CCN(c2ncccn2)CC1
i | i | Clc1ccc2nc3ccccn3c2c1
i | . | O=C(Cn1cnc2c(nnn2-c2ccccc2)c1=O)N1CCCc2ccccc21
i | . | CC(=O)NCCNc1nc(-c2ccccc2C(F)(F)F)nc2ccccc12
i | >57 | CCOc1ccccc1NC(=O)c1cc(CC(C)C)oc1C
i | >57 | COC(=O)c1cccc(COC(=O)c2ccccc2NC(=O)c2ccco2)c1
i | >57 | Cc1ccc(-c2noc(CCC(=O)Nc3ccccc3C)n2)cc1
i | >57 | COC(=O)C1=C(C)N=C2SCCC(=O)N2C1c1cc(Br)ccc1OC (centres undefined)
i | >57 | Cc1ccccc1-c1nc(CN2CCC(C(=O)NCCCN3CC(C)CC(C)C3)CC2)c(C)o1 (centres undefined)
. | >26 | Cc1cc(C)n(S(=O)(=O)Cc2ccccc2)n1
i | >26 | CN(C)c1nc(N(C)C)nc(N(C)C)n1
i | >57 | Cc1onc(-c2ccccc2Cl)c1C(N)=O
i | >57 | COC(=O)c1ccc2ccn(CC(=O)NC(C)C)c2c1
i | >57 | CCC1CCCCN1C(=O)COC(=O)c1cc2ccccc2cc1O (centres undefined)
i | . | CC1(C)CC(=O)C=C(Nc2ccc(OCC(F)(F)C(F)F)cc2)C1
i | . | CCn1c(=O)cc(OCC(=O)Nc2nc(C)cs2)c2ccccc21
i | >57 | COc1ccc(CNC(=O)COC(=O)c2n[nH]c3ccccc23)cc1OC
i | >57 | Cc1ccc(C(=O)OCC(=O)Nc2ccccc2)cc1NC(=O)c1ccco1
i | >57 | COc1ccccc1NC(=O)c1ccc(-c2ccccc2F)o1
i | >57 | Nn1c(SCC(=O)Nc2ccc(S(=O)(=O)N3CCCC3)cc2)nnc1C(F)(F)F

Continuation:
YjeE inh | Bst PK mod | SMILES
i | . | COc1ccccc1-c1cncnc1NCc1cccs1
i | ? | Cn1c(=O)[nH]c2cc3ccccc3cc21
i | >57 | COC(=O)c1ccccc1Nc1ccccc1
i | >57 | O=C(c1cccc(-n2cnnn2)c1)N1CC=C(c2ccccc2)CC1
i | . | CC(=O)N1CCC[C@@]2(CCN(Cc3ccc(C#N)cc3)C2)C1
i | >57 | COCCCn1c(SCC(=O)NC2CCCC2)nnc1-c1ccco1
i | >57 | Cc1ccc(C)c(NC(=O)CC(NCCCN2CCOCC2)C(=O)O)c1 (centres undefined)
i | . | COc1ncc2nc(-c3ccc(Cl)cc3)c(=O)n(CCC#N)c2n1
i | . | COc1ccc(C(=O)NCCc2ccc(S(N)(=O)=O)cc2)cc1OC
i | . | CC(=O)Nc1ccc(-c2cc(NC(C)=O)n(-c3ccccc3)n2)cc1
i | . | C=CCn1c(SCC(=O)N2CCOCC2)nc(O)c(Cc2ccccc2)c1=O
i | >57 | Cc1sc2nc(CSc3nnc(Cc4cccs4)n3C3CCCCC3)[nH]c(=O)c2c1C
i | . | CC(=O)N1CCC(N(CCCOC(C)C)C(=O)Nc2ccc(Cl)cc2)CC1
i | . | COc1ccccc1CNc1ncncc1-c1cccnc1
i | >57 | COC(=O)CSc1nnc(CCc2nc3ccccc3[nH]2)n1C
i | >57 | Cc1cc(C)n(C(=O)c2ccc(C)c(S(=O)(=O)N3CCCC3)c2)n1
i | >57 | O=C(COC(=O)c1ccc2c(c1)OCCO2)NCc1ccccc1
i | >57 | CN(C)CCN1C(=O)c2oc3ccccc3c(=O)c2C1c1ccc(F)cc1 (centres undefined)
i | . | Cc1nc2cnc(OCc3ccccc3)nc2n(C)c1=O
i | . | O=C1N/C(=N/c2ccccn2)SC1Cc1ccccc1 (centres undefined)
i | >57 | COc1ccccc1CNc1ncnc2c1nnn2Cc1ccccc1
i | . | O=S(=O)(Nc1ccc2nc(C(F)(F)F)[nH]c2c1)c1ccccc1
. | >26 | COC(=O)c1ccccc1NC=C1C(=O)OC2(CCCCC2)OC1=O
i | >57 | Cc1cc(=O)[nH]c(SCC(=O)Nc2nc3c(s2)CCCC3)n1
i | . | CCOC(=O)/C(C#N)=C1/C=CN(Cc2ccccc2)C=N1
i | . | O=C(Nc1cccc(Cl)c1N1CCCC1)c1cc2ccccc2o1
i | . | COC(=O)COC(=O)CC(CC(N)=O)c1ccccc1 (centres undefined)
i | >57 | Cn1c(NC(=O)c2ccco2)c(-c2ccccc2Cl)c(=O)c2ccccc21
i | . | CC[C@]1([C@H]2O[C@@H]([C@@H]3O[C@](O)(CO)[C@@H](C)C[C@H]3C)C[C@H]2C)CC[C@@H]([C@]2(C)CC[C@@]3(C[C@@H](O)[C@@H](C)[C@@H]([C@H](C)[C@H](OC)[C@H](C)C(=O)O)O3)O2)O1
i | . | CN1CCCC2(CCN(S(=O)(=O)c3ccccc3)CC2)C1
i | . | COc1ccc(-c2cc(C(=O)NCCN3CCOCC3)c3ccccc3n2)c(OC)c1
i | >57 | CC1CCCCC1N1CCN(C(=O)c2cccc(F)c2)CC1 (centres undefined)
. | >26 | CC(=O)c1ccc(O)c(CO)c1
i | >57 | Nc1nc2n(n1)C(c1ccco1)CC(c1ccccc1)N2 (centres undefined)
i | >57 | CCOc1ccc2[nH]c(C)c(CN3CCN(CC)CC3)c(=O)c2c1
i | >57 | CCOCCCNc1ncc2c(n1)CC(c1ccc(C)cc1)CC2=O (centres undefined)
i | >57 | CC1CN(c2c3c(nc4ncnn24)CCCC3)CC(C)O1 (centres undefined)
i | >57 | CCCc1cc(-c2[nH]ncc2-c2ccc(C(=O)OCC)o2)c(O)cc1O
i | >57 | CCOC(=O)c1[nH]c(C)c(C(=O)Nc2ccc(C)c(Cl)c2)c1C
i | i | C[C@@H](Nc1nc(-c2ccccc2)nc2c1oc1ccccc12)C(=O)O

The final 5 records of the part before open the next one:
YjeE inh | Bst PK mod | SMILES
i | >57 | CCOCCCNc1ncc2c(n1)CC(c1ccc(C)cc1)CC2=O (centres undefined)
i | >57 | CC1CN(c2c3c(nc4ncnn24)CCCC3)CC(C)O1 (centres undefined)
i | >57 | CCCc1cc(-c2[nH]ncc2-c2ccc(C(=O)OCC)o2)c(O)cc1O
i | >57 | CCOC(=O)c1[nH]c(C)c(C(=O)Nc2ccc(C)c(Cl)c2)c1C
i | i | C[C@@H](Nc1nc(-c2ccccc2)nc2c1oc1ccccc12)C(=O)O
i | >57 | Cc1noc(C)c1C(=O)NCCC1=CCCCC1
i | >57 | COc1ccc2[nH]c(=O)c(CN(C)C(=O)COc3ccccc3)cc2c1
i | ? | Cc1ccc2c(c1)N(CCC(=O)NCc1ccc3c(c1)OCO3)C(=O)CO2
i | >57 | CCOC(=O)c1c(NC(=O)CSc2nnnn2CC)sc(C)c1C
i | . | COCCn1c(=O)c(C)nc2cnc(Oc3ccc(OC)cc3)nc21
i | . | Nc1cccc2nsnc12
i | >57 | CCOCCCNC(=O)C(c1ccc(Cl)cc1)N1CCC2(CC1)OCCO2 (centres undefined)
. | >26 | COc1ccc(CSc2nnc3n(C)c(=O)c4c5c(sc4n23)CCCC5)cc1
i | . | Fc1ccc([C@H]2CCNC[C@H]2COc2ccc3c(c2)OCO3)cc1
i | >57 | Cc1ccccc1Cc1c(C)nc2ncnn2c1C
i | . | O=C(Oc1ccc2c3c(c(=O)oc2c1)CCCC3)c1ccco1
i | . | O=C(NCc1ccco1)NC12CC3CC(CC(C3)C1)C2
i | >57 | COc1ccc(NC(=O)C2CCCN2C(=O)OCc2ccccc2)c(OC)c1 (centres undefined)
i | . | CC1CCN(CC(O)COc2cccc(F)c2)CC1 (centres undefined)
i | . | COc1cccc(C2NC(=O)NC(C)=C2C(=O)Nc2ccc(C)cc2)c1 (centres undefined)
i | . | C#C[C@]1(O)CC[C@H]2[C@H]3CCC4=Cc5oncc5C[C@]4(C)[C@@H]3CC[C@]21C
i | >57 | Clc1ccc(CSc2nnc(-c3ccccn3)n2Cc2ccco2)c(Cl)c1
i | >57 | COc1ccc(NC(=O)Nc2cc(C)ccc2OC)cc1
i | >57 | CCOc1cccc(=O)c2c(C)n(C)c(C)c12
i | . | CS(=O)(=O)c1nc(-c2ccco2)cc(C(F)(F)F)n1
i | . | O=C(O)/C=C/C(=O)O
i | . | O=C(CSc1ccc2nnc(-c3cccnc3)n2n1)NCc1ccc2c(c1)OCO2
i | >57 | C=C(C)CC1Nc2ccccc2NC1CC(=C)C (centres undefined)
i | >57 | N#CCCN1CCn2c1nc1ccccc12
i | . | Cc1nnc(NC(=O)CSc2nnc(Cc3cccn3C)n2-c2cccc(C(F)(F)F)c2)s1
i | . | CN(Cc1ccco1)c1ncncc1-c1ccccc1C(F)(F)F
i | . | N#CC1=C2SCN(c3ccccc3)CN2C(=O)CC1c1ccccc1Cl (centres undefined)
. | >26 | CCCOc1cccc(C2C(C(=O)c3ccc(C)o3)=C(O)C(=O)N2CCCN(C)C)c1 (centres undefined)
i | >57 | O=C(O)CC1NC(=O)N(c2ccccc2)C1=O (centres undefined)
i | . | Cn1c(=O)oc2cc(S(=O)(=O)N3CCCC(C(=O)Nc4ccc5c(c4)OCCO5)C3)ccc21 (centres undefined)
i | . | OC(CNC1CCCCC1)CN1CCN(CC(O)CNC2CCCCC2)CC1 (centres undefined)
i | . | Cc1noc(/C=C/N(C)C)c1S(=O)(=O)N1CCC(C(=O)O)CC1
i | >57 | O=C(COc1cnc2ccccc2n1)NCCC1=CCCCC1
i | >57 | Cc1cc(C)c2[nH]c(=O)c(C(c3nnnn3C(C)(C)C)N3CCN(C(=O)c4ccco4)CC3)cc2c1 (centres undefined)
i | >57 | O=C(NCc1ccc2c(c1)OCO2)c1ccc(CN2CCOCC2)cc1
i | . | CN(C)Cc1ccccc1-c1ccc2ncnc(N3CCOCC3)c2c1
i | >57 | CCOC(=O)c1cnn2c(C(F)(F)F)cc(-c3ccco3)nc12
i | >57 | CN(C(=O)c1cnccn1)c1nnc(-c2cccnc2)s1
i | . | Cc1c(CN(C)CCc2ccccc2)c(=O)n(-c2ccccc2)n1C
i | . | O=C(c1ccc(CS(=O)(=O)c2ccccc2)o1)N1CCN(c2ncccn2)CC1
i | . | CC1CC(C)CN(C(=O)c2cn(C)c3ccc(S(=O)(=O)N(C)C)cc3c2=O)C1 (centres undefined)
